# HNF4A DNA FP: change in binding of human HNF4A to DNA, primary screen, biochemical, fluorescence polarization, FITC-DNA; activity change, % at 10 µM; AID 1224865, 2016; 1 h; Hepatocyte nuclear factor 4-alpha (Homo sapiens), P41235; 360,000 tested, 0.3% active; in the data active = activity change above about 30%, passing the limit was not always enough;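 also: controls were the assay level and a saturating level of protein; the project sought stronger binding though the title names inhibitors; some compounds called inactive have numbers as strong as hits; positive values seem to mean higher polarization but the record does not say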
# Target sequence (P41235 whole entry, looked up): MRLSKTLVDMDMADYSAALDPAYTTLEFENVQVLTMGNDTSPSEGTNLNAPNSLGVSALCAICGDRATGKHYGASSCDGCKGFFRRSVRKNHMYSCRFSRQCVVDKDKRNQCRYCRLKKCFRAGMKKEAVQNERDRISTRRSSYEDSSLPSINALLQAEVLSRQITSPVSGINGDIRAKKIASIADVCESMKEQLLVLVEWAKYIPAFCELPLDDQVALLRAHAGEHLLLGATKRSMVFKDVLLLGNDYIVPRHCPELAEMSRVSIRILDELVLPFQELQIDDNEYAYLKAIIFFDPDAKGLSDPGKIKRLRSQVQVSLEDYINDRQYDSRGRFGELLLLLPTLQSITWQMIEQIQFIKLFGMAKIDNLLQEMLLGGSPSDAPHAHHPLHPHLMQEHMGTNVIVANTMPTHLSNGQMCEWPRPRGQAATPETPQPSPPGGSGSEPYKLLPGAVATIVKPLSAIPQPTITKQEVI
# Vif A3G: inhibitors of Vif binding to APOBEC3G peptide, primary screen, biochemical, TR-FRET, GST-Vif 1-94, biotin-A3G peptide, dose response retest (AID 1117319). 260,000 tested, 0.57% active. Virion infectivity factor (Human immunodeficiency virus type 1 group M subtype B (isolate …. inhibition, %, or IC50 in µM where a hit was titrated. TR-FRET GST-Vif / biotin-A3G peptide binding; higher % means a stronger effect; test concentration not given here; strong numbers were not always called active;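 active = above the screen mean plus three standard deviations and confirmed in dose response; inconclusive = results disagree or hit not tested in dose response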;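 also: Vif residues 1-94 fused to GST binding biotinylated APOBEC3G peptide 110-148; 0% = full assay without inhibitor and 100% = GST in place of GST-Vif; retest series ran down from 100 µM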
# E coli growth: E. coli growth inhibition, primary screen, OD600. 330,000 tested, 0.21% active. OD600 absorbance (no concentration beside the values). AID 1053175, 2014. Escherichia coli growth, 23 h; stronger effect = lower value;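 active = OD600 absorbance below the run mean of sample wells minus 3.6 SD, in any replicate, cut at about 0.56 in these data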;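 also: stock transfer was 300 nL into about 60 µL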
# FGF22 binding: binders of human FGF22 protein, primary screen, FGF22 synaptogenesis inhibitor project, biophysical, thermal shift, single point | Fibroblast growth factor 22 (Homo sapiens), Q9HCT0 | recombinant FGF22 thermal shift, SYPRO orange fluorescence; percent of sucrose octasulfate shift, DMSO zero | calls only at 9.99 µM | 340,000 tested, 1.5% active | AID 651658, 2012;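 active = melting point raised past a set limit in the mean and every replicate; inconclusive = no clear call; three in four hits are not shown here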
# AF4-AF9 inh: inhibitors of AF4 peptide binding to AF9, primary screen, biochemical, AlphaScreen, biotin-AF4 peptide, FLAG-AF9, single point | 350,000 tested, 0.47% active | inhibition, % at 10 µM | Protein AF-9 (Homo sapiens), P42568;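 active = every replicate reaching a set inhibition limit, whatever the replicate mean, cut at about 25% in these data; inconclusive = mean inhibition reaches that limit but some replicates miss it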;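 also: 0% = plate neutral control median and 100% = total signal loss; the record names both 10 and 1 µM as test concentration; the first replicate is given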
# Target sequence (P42568 whole entry, looked up): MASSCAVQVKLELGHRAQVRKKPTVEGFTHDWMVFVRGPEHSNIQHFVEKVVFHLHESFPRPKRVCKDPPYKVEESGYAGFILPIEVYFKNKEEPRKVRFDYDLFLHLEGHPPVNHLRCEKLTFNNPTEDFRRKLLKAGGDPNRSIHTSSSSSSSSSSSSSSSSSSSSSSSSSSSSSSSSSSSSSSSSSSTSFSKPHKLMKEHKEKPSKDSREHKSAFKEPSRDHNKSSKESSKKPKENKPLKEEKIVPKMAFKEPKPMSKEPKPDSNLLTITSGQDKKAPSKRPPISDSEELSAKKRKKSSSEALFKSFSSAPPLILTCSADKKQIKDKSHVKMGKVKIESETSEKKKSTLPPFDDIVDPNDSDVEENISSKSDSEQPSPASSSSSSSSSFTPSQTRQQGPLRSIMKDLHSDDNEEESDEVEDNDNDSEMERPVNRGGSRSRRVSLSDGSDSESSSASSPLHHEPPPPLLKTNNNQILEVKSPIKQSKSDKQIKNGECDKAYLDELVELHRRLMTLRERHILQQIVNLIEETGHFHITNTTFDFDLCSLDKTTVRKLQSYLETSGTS
# RanGTP-Imp inh: inhibitors of RanGTP-importin-beta interaction, primary screen, biochemical, FRET, CFP-Ran, YFP-importin-beta, homogeneous | Ran GTPase (GTP-bound) - importin-beta complex | cell-free CFP-Ran/YFP-importin-beta FRET ratio | inhibition, % (concentration not given with the values) | 300,000 tested, 1.1% active | AID 2216, 2009;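 active = most replicates above 15%; inconclusive = exactly half above 15%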;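 also: 0% = DMSO wells and 100% = Ran loaded with GDP instead of GTP; wells of about 40 µL received 100 nL stock; the first replicate is given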
# UCH37 DUB inh: inhibitors of human UCH37 deubiquitinase, primary screen, biochemical, Ub-AMC cleavage, fluorescence; 330,000 tested, 0.33% active; purified proteasome/UCH37; AID 588478, 2011; inhibition, % (concentration not given with the values);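 active = mean of two replicates above 20%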;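 also: 0% = compound-free wells with enzyme and 100% = wells lacking proteasome; stock transfer was 100 nL into about 20 µL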
#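 Material: Human UCH37 enzyme supplied as purified proteasome complex | Schedule: 30 min compound-proteasome preincubation then 25 min substrate reaction, room temperature | Detection: AMC fluorescence from Ub-AMC cleavage, excitation 355 nm, emission 460 nm | Benchmarks: Wells without proteasome as full block, compound-free enzyme plus substrate as uninhibited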
# Active calls of the source: *; i = inactive; ? = inconclusive; nt = not tested or not shown; & = joins results of further samples. An excerpt, so the mix of outcomes need not match the whole.
# Values run as follows: HNF4A DNA FP	Vif A3G	E coli growth	FGF22 binding	AF4-AF9 inh	RanGTP-Imp inh	UCH37 DUB inh
- S=C(NCCc1ccccc1)NN=C1CCCCCC1
  -4.6	23.1%	0.717	i	2.6	1.2	-1.0
- O=c1c2[nH]c3ccccc3c2ncn1CCN1CCOCC1
  0.5	0.0%	0.673	nt	nt	2.5	-2.2
- COc1ccccc1N1CCN(C(=O)c2n[nH]c3ccccc23)CC1
  1.9	6.0%	0.686	i	1.2	0.0	3.0
- CC(CC12CC3CC(CC(C3)C1)C2)NCc1ccccc1O (stereo not drawn)
  4.4	nt	0.607	i	6.3	-2.1	2.6
- CC(NC(=O)c1ccc(C(=O)c2ccccc2)cc1)c1ccc(S(N)(=O)=O)cc1 (stereo not drawn)
  -0.8	-1.0%	0.631	i	2.6	nt	1.1
- CC1CC(C)CN(C(=O)COc2ccc([N+](=O)[O-])cc2Cl)C1 (stereo not drawn)
  2.8	-10.4%	0.642	i	2.0	-0.4	4.0
- COc1ccc(C(=O)Nc2ccc(S(=O)(=O)Nc3nccnc3OC)cc2)cc1
  3.6	3.5%	0.747	nt	nt	-3.0	0.7
- CCOC(=O)c1cccnc1SCc1cc(=O)n2ccccc2n1
  -5.9	-2.5%	0.688	i	4.0	6.7	-14.7
- COC(=O)C1=C(C)NC2=C(C(=O)CCC2)C1c1cn(Cc2ccc(Cl)cc2Cl)nc1-c1ccccc1 (stereo not drawn)
  -1.3	4.4%	0.764	nt	nt	6.6	-94.5
- CCOC(=O)N1CCN(C(=O)CN(c2ccc(OCc3ccccc3)cc2)S(C)(=O)=O)CC1
  -4.8	4.2%	0.735	nt	nt	3.9	0.1
- CCOc1ccc(NC2c3ccccc3C(=O)N2c2ccc(Cl)cn2)cc1 (stereo not drawn)
  3.0	?	0.772	i	-12.1	-1.2	1.9
- O=C(NCCO)OC1CC2CC1[C@H]1CCCCN1C2=O (stereo partly drawn)
  3.1	nt	nt	i	-1.6	nt	nt
- S=c1[nH]nc(COc2ccccc2)n1/N=C/c1ccc(Cl)cc1
  0.8	-9.0%	nt	i	0.5	2.3	nt
- Cc1ccc(C)c(NC(=O)CSc2n[nH]c(-c3ccncc3)n2)c1
  -1.9	1.1%	0.768	nt	nt	1.5	1.4
- O=C(CCN1C(=O)/C(=C/c2ccc(F)cc2)SC1=S)NC1C=CS(=O)(=O)C1 (stereo not drawn)
  -2.9	nt	0.72	i	-5.4	0.0	7.9
- CN1CC(=O)Nc2ccc(Br)cc2C1=O
  -1.6	-8.9%	nt	i	-0.3	0.9	nt
- CC(=O)NC(CC(=O)Nc1nc(C)cs1)c1ccccc1 (stereo not drawn)
  2.8	4.5%	0.706	i	-2.1	-1.2	4.6
- CC(=O)Nc1ccc(OCC(O)CN2CCCCC2C)cc1 (stereo not drawn)
  2.0	-0.7%	0.688	nt	nt	-3.4	5.5
- COc1ccc(-c2csc(NC(=O)CSCc3c(C)noc3C)n2)cc1OC
  0.1	1.3%	0.673	i	2.5	-0.7	2.5
- Cc1ccc(C)c(S(=O)(=O)N2CCC3(CC2)OCCN3S(=O)(=O)c2cccs2)c1
  -1.9	-5.2%	0.722	i	-2.6	1.0	3.7
- COc1ccc(S(=O)(=O)N(C)c2ccc(C(=O)N3CCCC3)cc2)cc1OC
  1.4	nt	0.708	i	-0.9	-0.5	1.6
- COc1ccccc1C1=Nc2cccc3cccc(c23)N1
  1.3	>63.3µM*	0.649	i	?	2.1	6.8
- N#CCCC(CCC#N)(CCC#N)c1cc[n+](CCc2ccccn2)cc1
  1.3	nt	0.718	i	-2.2	?	1.4
- CCOC(=O)C1CCN(S(=O)(=O)c2cn(C)cn2)CC1
  0.6	0.9%	0.74	i	3.4	1.4	0.9
- CCN(CC)S(=O)(=O)c1ccc2c(c1)N(CC(=O)NCCc1ccc(S(N)(=O)=O)cc1)C(=O)CO2
  3.3	5.8%	0.685	i	0.5	-0.1	1.0
- C[C@H](CO)N1C[C@H](C)[C@@H](CN(C)C(=O)Nc2ccc3c(c2)OCO3)Oc2ccc(NC(=O)CCN3CCOCC3)cc2C1=O
  -4.1	nt	0.769	i	-2.4&-0.6	nt	-4.5
- Cc1cc(N2CCN(C(C(=O)NC3CCCC3)C(C)(C)C)CC2)c2ccccc2n1 (stereo not drawn)
  1.9	nt	nt	i	2.4	nt	nt
- CCN(C[C@H]1N[C@@](Cc2ccccc2)(C(=O)OC)[C@H]2C(=O)N(Cc3ccccc3)C(=O)[C@@H]12)S(=O)(=O)c1ccccc1
  0.2	nt	nt	i	-0.2	nt	nt
- O=[N+]([O-])c1cc(F)c(N2CCOCC2)cc1N1CCCCC1
  -2.0	-1.3%	0.687	i	3.9	-2.3	7.1
- O=C(CN1CCN(S(=O)(=O)c2ccccc2)CC1)NCc1ccccc1
  0.8	nt	0.742	i	1.1	nt	-1.7
- O=C1CCCCCCCCCC/C(=N\O)CCCO1
  2.9	nt	nt	i	-1.0	-0.5	nt
- Cn1cccc1/C=C1\SC(=S)N(CC(=O)O)C1=O
  79.9*	4.7%	0.703	i	-46.7	nt	25.1*
- O=C(NNC(=O)c1ccncc1)Nc1cc(Cl)ccc1Cl
  0.8	-1.4%	0.645	i	-0.9	nt	4.1
- COc1ccc(OC)c(NC(=O)CSc2nccn2Cc2ccco2)c1
  -2.7	nt	0.678	i	2.1	0.9	2.5
- Cn1c(=O)cc(OCC(=O)NCCCN2CCN(c3ccccc3F)CC2)c2ccccc21
  0.3	4.6%	0.677	nt	nt	-0.3	2.0
- CN1C2=C(C#N)C(c3ccccc3)(C(F)(F)F)NC(=O)N2c2ccccc21 (stereo not drawn)
  8.2	?	0.736	nt	nt	?	-11.7
- O=C(CCCCCN1C(=O)CCC1=O)Nc1ncn[nH]1
  -1.8	5.9%	0.79	nt	nt	1.6	5.4
- Cc1ccc(NC(=O)CSc2nnc(-c3cnccn3)n2C)cc1C
  3.3	nt	0.702	i	-0.1	-0.9	6.0
- CN(C)CCn1c(=S)[nH]c2ncccc2c1=O
  0.5	1.2%	0.708	i	-2.9	-3.3	1.5
- Fc1ccc(CN2CCCCCCC2)c(F)c1
  -1.2	0.6%	0.708	nt	nt	nt	4.2
- CCOC(=O)c1c(CC(C)C)csc1/N=C/C1C(=O)CCCC1=O
  2.9	-4.8%	nt	i	5.2	-3.1	nt
- COc1cc(SC)ccc1C(=O)Nc1ncc(Cl)cc1Cl
  -0.2	nt	0.691	i	-1.3	0.5	1.4
- O=C(Nc1ccc(C(=O)N2CCCC(CO)C2)cc1)c1ccc(Br)o1 (stereo not drawn)
  0.5	nt	0.655	i	-0.2	nt	0.8
- COc1ccc(C(=O)/C=C/c2ccc(OC3CSC3)cc2)cc1OC
  -0.1	-10.1%	0.672	nt	nt	-1.7	5.5
- O=C(CSc1ccccc1)Nc1cccc(S(=O)(=O)N2CCOCC2)c1
  2.2	-6.2%	0.644	i	-3.5	nt	1.2
- CCn1c(=O)cc(OCC(=O)NCCCN2CCN(c3cccc(Cl)c3)CC2)c2ccccc21
  -0.3	-2.7%	0.65	nt	nt	-1.5	1.0
- O=C(NCC(c1ccccc1Cl)N1CCCC1)C1CCN(C(=O)Nc2ccccc2)CC1 (stereo not drawn)
  0.3	3.1%	0.675	i	-0.8	nt	2.9
- Cc1noc(C)c1S(=O)(=O)Nc1ccc(C#N)cc1
  -0.1	0.1%	0.657	i	-1.0	-2.9	1.8
- Cc1occc1C(=O)O/N=C(\N)c1ccccc1
  0.4	6.0%	0.678	i	-1.9	2.1	2.9
- CC(C)CNc1ncnc2c1cnn2Cc1ccccc1Cl
  4.8	-3.9%	0.674	i	-2.7	0.7	3.3
- CC(C)Oc1ccc(F)cc1-c1cc(C(=O)NC2CCCCC2)[nH]n1
  0.3	nt	nt	i	-1.3	nt	nt
- CCOC(=O)c1cc(-c2ccc(OC)cc2OC)nn1-c1ccc(C(=O)O)cc1
  -1.4	4.7%	0.647	i	-0.5	1.0	-4.2
- Cc1noc2ncnc(N3CCN(c4ccc(F)cc4)CC3)c12
  -1.7	-15.7%	0.649	i	-2.1	1.7	-4.7
- COc1c(Cl)ccc(Cl)c1C(=O)NC(=S)N1CCOCC1
  -1.2	-7.9%	0.664	i	0.0	-1.8	5.7
- COCc1c(C(=O)N2CCN(Cc3ccc(C#N)cc3)CC2)oc2ccccc12
  -4.0	nt	0.669	i	-1.8	1.0	1.3
- COC(=O)C[C@@H]1C=C[C@@H](NC(=O)c2ccccc2F)[C@@H](CO)O1
  2.8	nt	nt	i	2.0	nt	nt
- O=C(COc1ccc(Cl)cc1Cl)Nc1ccccc1NS(=O)(=O)c1cccs1
  0.1	-7.6%	0.643	i	-2.8	3.4	1.9
- C=CCn1c(SCC(=O)N(C)C2CCCCC2)nnc1C1CC1
  0.7	nt	0.71	i	-2.1	nt	3.0
- Cc1ccc(CNc2ccc(N3C(=O)CC(C)C3=O)cc2[N+](=O)[O-])cc1 (stereo not drawn)
  2.4	nt	0.684	nt	nt	-0.1	5.6
- CC(C(=O)Nc1nccs1)N1C(=O)c2ccccc2S1(=O)=O (stereo not drawn)
  2.0	-4.0%	0.695	i	-0.3	-1.2	3.3

# Arranged by value in RanGTP-Imp inh (rising): three of the compounds above.
Structure | Vif A3G | AF4-AF9 inh | RanGTP-Imp inh | UCH37 DUB inh
Cc1noc(C)c1S(=O)(=O)Nc1ccc(C#N)cc1 | 0.1% | -1.0 | -2.9 | 1.8
CCOC(=O)C1CCN(S(=O)(=O)c2cn(C)cn2)CC1 | 0.9% | 3.4 | 1.4 | 0.9
Cc1ccc(C)c(NC(=O)CSc2n[nH]c(-c3ccncc3)n2)c1 | 1.1% | nt | 1.5 | 1.4

# Further records
# Values run as follows: HNF4A DNA FP	Vif A3G	E coli growth	FGF22 binding	AF4-AF9 inh	RanGTP-Imp inh	UCH37 DUB inh
- CC(=O)c1cnc(Nc2ccc(C)cc2)s1
  1.2	28.4%	0.679	i	-1.1	-0.9	5.5
- O=C(CS(=O)(=O)c1ccccc1)Nc1nc(-c2ccc(F)cc2)cs1
  0.8	3.3%	0.657	i	-0.6	6.5	2.3
- CC(C)CCNC(=O)C1CCN(S(=O)(=O)c2ccc(-n3cnnn3)cc2)CC1
  -2.7	nt	0.639	i	-0.1	3.6	2.1
- CCOC(=O)C1CCCCN1Cc1ccc(-c2ccccc2)cc1 (stereo not drawn)
  2.2	-3.3%	0.697	i	-0.9	3.7	1.8
- O=C(COc1ccc(Cl)cc1)OCC(=O)N1CCCCCC1
  -0.1	-1.5%	0.732	nt	nt	0.1	2.0
- C=CCn1c(SCc2ccccc2)nc2c1c(=O)[nH]c(=O)n2C
  1.4	23.6%	0.691	i	3.2	-1.5	0.6
- Cc1ccc(N(C)C(=O)CCNC(=O)Cn2cnc3ccccc3c2=O)cc1C
  1.4	0.4%	0.692	i	1.5	3.6	0.1
- COC(=O)c1sccc1NC(=S)N1CCCCC1C (stereo not drawn)
  -0.5	4.8%	0.653	nt	nt	2.7	5.3
- CC(C)(C)OC(=O)N1CCC(C(=O)N[C@H](C(=O)O)c2ccccc2)(c2ccccc2)CC1
  -1.6	1.3%	0.681	i	-1.5	-3.5	-0.3
- Cc1cc(C)n(CCc2nc(-c3cc4ccccc4o3)cs2)n1
  -1.4	-9.8%	0.72	nt	nt	-1.7	nt
- CCCCNc1c(-c2ccc(-c3ccc(OC)cc3)c(OC)c2)nc2ccccn12
  -1.4	nt	0.716	i	10.6	nt	-243.7

# Screening results as filed in PubChem BioAssay.
